MT1-MMP act inh: blocks activation of human MT1-MMP; P50281; HT1080 RFP-PRO-GFP cells, GFP/RFP ratio fluorescence, overnight; percent of plate control window, DMSO zero; GFP/RFP ratio change, % at 20 µM; 0.061% of 360,000 active; AID 651647;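 active = GFP/RFP ratio change of at least 30% with cell ATP level not reduced by more than half and red fluorescence within 50% of control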; note: strong numbers were not always called active
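Assay system: RFP-PRO-GFP reporter HT1080 cells; read-out basis: GFP/RFP fluorescence ratio; benchmarks: DMSO wells and RFP-L50D-GFP cells; doses: 20 µM single dose, 1% DMSO; schedule: overnight cell settling, then overnight compound exposure, 37 °C, 5% CO2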
HIV Env fusion: HIV envelope-mediated fusion inhibition; HeLa-JRFL Env/CEM21 cell fusion, luciferase; inhibition, % at 12.3 µM; 1.1% of 360,000 active;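 active = mean replicate inhibition score of at least 50 and every replicate individually at or above 50; inconclusive = only one of the two criteria met; inactive = mean below 50 and not all replicates reaching 50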;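 note: 0% = plate neutral controls and 100% = maraviroc near 300 nM; one replicate is shown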
CSC inhib: cancer stem cell inhibition; cancer stem cell-like cells viability, luminescence; inhibition, % at 7.5 µM; 1.1% of 300,000 active;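 active = mean at 75% or more and at least half the replicates too; inconclusive = mean and replicates disagree; tested in HMLE shEcad cells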;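 note: 0% = median of negative and 100% = median of positive control wells; the first replicate is given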
Rce1 inhib: inhibitors of yeast Ras-converting enzyme; yeast membranes, quenched prenylated peptide cleavage fluorescence; calls only; 0.27% of 290,000 active;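 active = fall in fluorescence gain of 50% or more versus controls, with final raw signal at or below 3038400; inconclusive = same 50% fall but final raw signal above 3038400; inactive = fall in fluorescence gain under 50%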;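 note: plate controls were neutral control wells for no effect and wells lacking membranes for full effect; tested at 10 µM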
Target sequence (Q03530 whole entry, looked up): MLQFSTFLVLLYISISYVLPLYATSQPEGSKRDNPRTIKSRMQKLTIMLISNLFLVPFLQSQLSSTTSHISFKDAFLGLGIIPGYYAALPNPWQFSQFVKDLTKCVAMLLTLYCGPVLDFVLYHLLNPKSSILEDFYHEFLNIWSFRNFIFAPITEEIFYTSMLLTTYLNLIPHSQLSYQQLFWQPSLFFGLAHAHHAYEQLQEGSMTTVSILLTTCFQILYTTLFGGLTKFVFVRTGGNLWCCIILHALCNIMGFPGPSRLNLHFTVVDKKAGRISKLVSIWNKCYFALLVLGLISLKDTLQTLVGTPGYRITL
Yeast UUG start: modulators of start codon recognition fidelity in yeast. S. cerevisiae UUG-firefly luciferase reporter, luminescence/redox ratio. activity score, % at 18.7 µM. 0.13% of 350,000 active;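 active = replicate mean at a twofold rise or more, about +100% in these data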;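 note: firefly luciferase made from a UUG start codon reports start codon fidelity; reporter light over untreated wells divided by growth signal over untreated wells; some hits fall short of that in this replicate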
eIF4H inh: inhibitors of RNA binding by human eIF4H; Q15056; 0.94% of 290,000 active; inhibition, % at 35 µM; eIF4H fluorescence polarization binding assay;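 active = 50% or more with normal probe brightness, or confirmed in later tests; inconclusive = above 50% with abnormal brightness, or retests that disagree; inactive = below 50% or failed in later tests; about a fifth of its hits are not listed in these tables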;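 note: calls also rest on retests at 20 µM and on dose response follow-up; 0% = protein and probe with vehicle and 100% = probe without protein; strong numbers were not always called active; many hits fall short of the cut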
PABP polyA inh: PABP-poly(A) binding inhibition | PABP-poly(A) RNA binding, fluorescence polarization | inhibition, % at 35 µM | 1% of 290,000 active;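 active = 50% or more with normal probe brightness, or confirmed in later tests; inconclusive = above 50% with abnormal brightness, or retests that disagree; inactive = below 50% or failed in later tests; about a fifth of its hits are not listed in these tables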;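 note: calls also rest on retests at 20 µM and on dose response follow-up; controls were probe without protein and protein plus probe with vehicle; some compounds called inactive have numbers as strong as hits; many hits fall short of the cut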
MT1-MMP act inh RFP: recorded beside MT1-MMP act inh, whose call it bears; RFP signal change, %; measured here: RFP expression control read;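 0 = vehicle wells; hits needed this value within 50% of zero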
Starred values were filed as active, the others as inactive; i = inactive; u = inconclusive; x = not tested or not shown.

SMILES | MT1-MMP act inh | MT1-MMP act inh RFP | HIV Env fusion | CSC inhib | Rce1 inhib | Yeast UUG start | eIF4H inh | PABP polyA inh
COc1ccc(C(=O)N/N=C/c2cccnc2)cc1 | -1 | 6 | -2 | 12 | i | -11 | 1 | 0
CCC(=O)Nc1ccc(NC(=O)CSc2nc3c(c(=O)n(C)c(=O)n3C)n2CC)cc1 | -1 | 1 | 5 | 2 | i | 2 | -4 | -2
COc1cccc(N2CCN(CC(=O)NCc3ccccc3)CC2)c1 | 0 | 0 | -4 | -6 | i | -8 | 4 | 0
CCN(C[C@H]1N[C@@](C)(C(=O)OC)[C@H]2C(=O)N(Cc3ccccc3)C(=O)[C@@H]12)C(=O)Nc1ccccc1 | -3 | -1 | 127* | x | x | -10 | x | x
OCC1OC(n2cnc3c(NC4CCCCC4)ncnc32)C(O)C1O (stereo unspecified) | 0 | 0 | x | 5 | i | -5 | -1 | 4
COCCN(C(=O)Nc1ccccc1)C(C)c1cccnc1 (stereo unspecified) | -3 | 3 | -2 | -16 | i | -5 | 0 | -1
O=C(OCC(=O)N1CCCCC1)c1ccc(OC(F)(F)F)cc1 | 1 | 1 | -8 | 0 | x | -7 | x | x
O=C(c1cccc(C(F)(F)F)c1)N1CCN(c2cc(=O)[nH]nc2-c2ccccc2)CC1 | 7 | 6 | -31 | -9 | i | -11 | -9 | -9
O=C(c1cccc(F)c1)N1CCC(N2CCCCCC2)CC1 | -3 | 1 | x | 1 | i | -10 | 9 | 0
COc1ccc(OCC(=O)Nc2ccc(NC(=O)c3ccco3)cc2)cc1 | -4 | 1 | x | -1 | i | 3 | -2 | 2
C/C(=N\NC(=O)c1nnn(-c2nonc2N)c1CN(C)c1ccccc1)c1cccnc1 | -4 | 5 | -24 | 3 | i | -25 | -16 | 2
CCOc1ccccc1N1CN(CC)CNC1=S | -8 | -1 | x | 18 | i | -27 | -4 | -2
COc1ccc(CN(C(=O)Cc2c[nH]c3ccccc23)C(C(=O)NC2CCCCC2)c2ccc(C)o2)cc1 (stereo unspecified) | -22 | -22 | 109* | 26 | i | -11 | -5 | 3
CCCC/C(O)=C1\C(=O)CC(C)(C)CC1=NCCCCCC(=O)O | 1 | 5 | 10 | -14 | i | x | -6 | 1
Cc1ccc(C(=O)Nc2ccc(C(=O)NCC3CCCO3)cc2)cc1 (stereo unspecified) | 2 | 2 | 7 | -12 | i | 3 | 3 | -6
Cc1c(Cl)cccc1NC(=O)CC1Oc2ccccc2NC1=O (stereo unspecified) | 3 | 0 | -1 | -5 | i | x | 2 | 15
O=C(O)CNC(=O)/C(=C\c1ccco1)NC(=O)c1ccco1 | -2 | 3 | -7 | -15 | i | -9 | 28 | 20
Cc1cc2ccccc2n1CCNC(=O)C1CCCC1 | 56 | 84 | x | -1 | i | x | u | 75*
O=C(CN(C(=O)CNC(=O)c1cccs1)c1cccc(F)c1)NC1CCCCC1 | x | x | -18 | x | i | 13 | 0 | 14
O=C(COC(=O)C1CCN(c2ccc(C(F)(F)F)cn2)CC1)Nc1ncc(Cl)cc1Cl | 0 | 3 | 7 | -10 | x | -7 | x | x
CCOC(=O)C1=C(C)OC(N)=C(C#N)C1c1ccc(C)o1 (stereo unspecified) | -7 | 2 | x | -21 | i | -19 | 7 | 15
O=C(COc1ccc2ccccc2c1)N1CCCC1 | 1 | -1 | -34 | -1 | i | -15 | -7 | 2
COc1ccc(CCN(CC(=O)NC2CCCC2)C(=O)CCC(=O)Nc2cc(C)on2)cc1OC | 3 | 5 | -79 | -12 | i | -16 | -3 | 12
NS(=O)(=O)c1cccc(NC(=O)Cc2ccc(Cl)c(Cl)c2)c1 | 4 | 5 | 5 | -10 | i | -6 | -2 | 13
COc1ccc(-c2nnc3sc(CN4C(=O)c5ccccc5C4=O)nn23)cc1 | 4 | 4 | x | -13 | i | -12 | -1 | 11

Laid out differently: entries from further up
| smiles | MT1-MMP act inh | MT1-MMP act inh RFP | HIV Env fusion | CSC inhib | Rce1 inhib | Yeast UUG start | eIF4H inh | PABP polyA inh |
| --- | --- | --- | --- | --- | --- | --- | --- | --- |
| O=C(c1cccc(F)c1)N1CCC(N2CCCCCC2)CC1 | -3 | 1 | x | 1 | i | -10 | 9 | 0 |
| COc1ccc(OCC(=O)Nc2ccc(NC(=O)c3ccco3)cc2)cc1 | -4 | 1 | x | -1 | i | 3 | -2 | 2 |
| C/C(=N\NC(=O)c1nnn(-c2nonc2N)c1CN(C)c1ccccc1)c1cccnc1 | -4 | 5 | -24 | 3 | i | -25 | -16 | 2 |

Next part
SMILES | MT1-MMP act inh | MT1-MMP act inh RFP | HIV Env fusion | CSC inhib | Rce1 inhib | Yeast UUG start | eIF4H inh | PABP polyA inh
Cc1ccc(CCNC(=O)C2CCCN(c3nc4ccccc4o3)C2)cc1 (stereo unspecified) | -5 | -8 | -10 | -10 | i | 1 | 1 | 2
CCOC(=O)/C(=C/c1c(C)n(C)c2ccc([N+](=O)[O-])cc12)C(C)=O | -4 | -10 | -96 | -7 | i | x | 4 | 1
COc1ccc(C(=O)NNC(=O)Cc2nc3ccccc3n2C)cc1 | 2 | 2 | 15 | -15 | x | -21 | x | x
Cc1ccc(C(=O)Oc2cc(-c3ccccc3)no2)cc1 | 0 | 2 | x | 11 | i | 4 | -2 | 5
Cc1ccc(/C=N\NC(=O)COc2ccc(C)cc2[N+](=O)[O-])cc1 | 1 | -1 | -6 | -1 | i | x | -10 | -1
NC(=O)c1c(N)sc(=S)n1-c1ccccc1 | -3 | -5 | -45 | -9 | i | -35 | -1 | -3
CC(=O)N1CCN(c2ccc(NC(=O)c3ccc(Cl)cc3)cc2)CC1 | 1 | -1 | -8 | -12 | x | -7 | -1 | 4
CCOc1cccc(-c2c(C(=O)N/N=C(\C)c3cccnc3)nnn2-c2nonc2N)c1 | -1 | 5 | 6 | -5 | i | -29 | -10 | 13
O=C(Nc1ccc2c(c1)OCO2)C1CCCN(S(=O)(=O)Cc2ccccc2)C1 (stereo unspecified) | 5 | -4 | -23 | -1 | i | 6 | 3 | 3
CC(=O)Nc1ccc(S(=O)(=O)NCc2ccc(C)n2C)cc1 | -1 | 0 | -5 | 0 | i | -5 | 3 | -1
C=CC(C)n1c(Br)nc2c1c(=O)[nH]c(=O)n2C (stereo unspecified) | 5 | 1 | 23 | -7 | i | x | -4 | 4
CCN1C(=O)/C(=C\N2CCCc3ccccc32)SC1=S | -5 | -4 | x | 11 | i | -3 | -5 | 5
Cc1ccccc1C#N | 1 | 10 | x | 5 | x | 0 | x | x
COc1ccc(NC(=O)CN(c2ccc(F)cc2)S(=O)(=O)c2ccccc2)c(OC)c1 | 4 | -7 | 1 | -5 | i | -12 | 9 | 2
Fc1ccccc1NC(=S)NCCc1cccc(Cl)c1 | 0 | -6 | -38 | 10 | i | -24 | -4 | 5
O=C(Cn1nnc(-c2ccccc2F)n1)OCC(=O)c1ccccc1 | -2 | 2 | 13 | -7 | i | x | -3 | -4
N=c1n(CCN2CCOCC2)c2ccccc2n1CC(O)COc1ccccc1 (stereo unspecified) | -4 | -3 | x | x | i | -18 | -4 | -5
COc1ccc(S(=O)(=O)N2C(=O)/C(=C3\SC(N)=NC3=O)c3ccccc32)cc1 | 14 | -4 | 8 | -3 | i | -15 | -1 | -2
NC(=O)CSc1nc2ccccc2n1Cc1ccccc1F | 0 | 2 | 5 | -3 | i | -23 | 3 | -14
CSc1cccc(NC(=O)CNS(=O)(=O)c2ccccc2)c1 | -1 | 5 | -21 | -6 | i | -14 | -3 | 9
CC(=O)c1cccc(-c2cnc3c(NC=O)cc(-c4ccccc4F)cn23)c1 | -3 | -10 | -11 | x | x | -22 | x | x
COc1ccc(CNC(=O)COc2ccc(C(=O)c3ccc(F)cc3)cc2)cc1 | 2 | -7 | 6 | 59 | i | x | -2 | 6
Cc1cccc(C)c1OC(=O)CN1C(=O)c2ccccc2C1=O | 0 | 0 | 11 | -21 | i | -29 | -10 | 8
CC1CCCN(CC(O)COc2ccc(S(=O)(=O)N3CCCC3)cc2[N+](=O)[O-])C1 (stereo unspecified) | 3 | 2 | x | 23 | x | 2 | x | x
COc1cc(OC)c(CN2CCN(c3ccc(F)cc3)CC2)cc1Br | 12 | 1 | -54 | 24 | i | -8 | -5 | -1

In the list so far, 5 contain a Cl atom:
SMILES | MT1-MMP act inh | MT1-MMP act inh RFP | HIV Env fusion | CSC inhib | Rce1 inhib | Yeast UUG start | eIF4H inh | PABP polyA inh
Cc1c(Cl)cccc1NC(=O)CC1Oc2ccccc2NC1=O (stereo unspecified) | 3 | 0 | -1 | -5 | i | x | 2 | 15
O=C(COC(=O)C1CCN(c2ccc(C(F)(F)F)cn2)CC1)Nc1ncc(Cl)cc1Cl | 0 | 3 | 7 | -10 | x | -7 | x | x
NS(=O)(=O)c1cccc(NC(=O)Cc2ccc(Cl)c(Cl)c2)c1 | 4 | 5 | 5 | -10 | i | -6 | -2 | 13
CC(=O)N1CCN(c2ccc(NC(=O)c3ccc(Cl)cc3)cc2)CC1 | 1 | -1 | -8 | -12 | x | -7 | -1 | 4
Fc1ccccc1NC(=S)NCCc1cccc(Cl)c1 | 0 | -6 | -38 | 10 | i | -24 | -4 | 5

Going on with the list.
SMILES | MT1-MMP act inh | MT1-MMP act inh RFP | HIV Env fusion | CSC inhib | Rce1 inhib | Yeast UUG start | eIF4H inh | PABP polyA inh
Cc1cc2cc(CNC(=O)Nc3ccccc3)ccc2[nH]1 | 23 | 39 | -22 | 3 | i | -8 | -1 | -5
CC(=O)Nc1ccc(N2C(=O)CCC2=O)cc1C | 2 | 4 | -34 | -2 | i | 0 | 4 | 0
Cc1ccc(C)c(OCC(=O)N(Cc2nnc(-c3ccccc3Cl)o2)C2CC2)c1 | -5 | 1 | x | -1 | i | -9 | x | x
Cc1c(C(C)(C)O)[nH]c2ccc(C#N)cc12 | 5 | -3 | 5 | -28 | i | -13 | 3 | 1
CSc1ccccc1NC(=O)c1cc(-c2cccnc2)nc2ccc(Br)cc12 | -5 | -7 | -5 | 2 | i | 6 | -2 | 3
CC1CCN(C(=O)CCc2nnc3ccc(NCc4ccco4)nn23)CC1 | 1 | 4 | -8 | 1 | i | 2 | 3 | 2
Cc1ccc(/C=N/NC(=O)CSc2nc3ccccc3n2Cc2ccc(Cl)cc2)o1 | 0 | -2 | x | 6 | i | x | -4 | 4
Cc1cc(C(=O)NCC(=O)OCC(=O)NCC2CCCO2)ccc1[N+](=O)[O-] (stereo unspecified) | 5 | 8 | 1 | -10 | x | -6 | x | x
CCCNC(=O)c1ccc2c(=O)c(O)c(-c3ccc(OC)cc3)[nH]c2c1 | 5 | 7 | x | 29 | i | 6 | -9 | 4
N=c1n(N)c2ccccc2n1CC(=O)c1ccc(Br)cc1 | -4 | -2 | -33 | x | i | 1 | -4 | -1
Cc1cc2cc3c(cc2nc1SCC(=O)O)CCC3 | -1 | -2 | 4 | 1 | i | x | -3 | -3
CC(=O)Nc1ccc(NC(=O)c2ccnn2C)cc1 | 0 | 5 | -5 | -13 | i | -5 | x | x
Cc1ccc(C2=Nc3ccccc3SC(c3cccc([N+](=O)[O-])c3)C2)cc1 (stereo unspecified) | -2 | 4 | -10 | 25 | i | -18 | 0 | 12

These rows are one share of the data; rates above refer to the full screens.
